Rango complex inh = qHTS Assay for Inhibitors of Rango (Ran-regulated importin-beta cargo) - Importin beta complex formation | 340,000 tested, 0.031% active | Importin subunit beta-1 (Homo sapiens), Q14974 | Potency, µM (doses to about 92.2 µM), without a hit: at the top dose inhibition of complex formation | Rango CFP/YFP FRET sensor + importin beta, 45 min; active = rising FRET ratio curve, often small or poorly fitted; inconclusive = mostly compound fluorescence or quenching in the first reads; inactive = flat curves in all reads;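 note: potency is the fitted concentration of half-maximal effect; 0% = DMSO wells and 100% = buffer wells lacking importin beta; nearly all actives have a fitted effect of over 15% in size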
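Inhibition scored from the CFP 486 nm/YFP 530 nm FRET ratio 45 min after adding 0.125 microM importin beta to 50 nM Rango biosensor preincubated 5 min with compound (room temperature, PBS with DTT, Tween-20, BSA). No-importin wells as positive control.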
Rango release inh = qHTS Assay for Inhibitors of RanGTP induced Rango (Ran-regulated importin-beta cargo) - Importin beta complex dissociation | Snurportin-1 (Homo sapiens) + GTP-binding nuclear protein Ran (Homo sapiens) + Importin … | Biochemical FRET Rango-importin beta, RanGTP-induced dissociation | Potency, µM (titrated, usually from 46.1 µM), inactives show at the top dose activity change, negative = inhibition | 340,000 tested, 0.071% active | AID 540253, 2011; active means falling FRET ratio curve, often poorly fitted, with flat reads before Ran was added; inconclusive means other falling curves, or compound fluorescence or quenching; inactive means flat or rising ratio curve;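 note: potency is the fitted concentration of half-maximal effect; % of control where 0% means no effect; nearly all actives have a fitted effect of over 45% in size; -100% = wells without RanGTP and RCC1; the record marks most hits as doubtful in a second field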
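FRET read at 45 min, room temperature: inhibitors block the CFP/YFP signal rise when RanGTP (0.6 uM Ran, 2 mM GTP, 0.2 uM RCC1) frees Rango (0.1 uM) from importin beta (0.25 uM). Pre-read after 5 min compound exposure flags interference.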
GLA inh pH 4.5 = qHTS Assay for Inhibitors of Human alpha-Galactosidase at pH 4.5; Alpha-galactosidase A (Homo sapiens), P06280; purified enzyme, 4-MU-alpha-Gal fluorescence, pH 4.5; activity change, negative = inhibition, % at 105 µM; 230,000 tested, under 10 active; inconclusive = small, poorly fitted or top-dose-only inhibition, or a rising curve; inactive = flat fitted curve, though single readings scatter; no compound was filed as active;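 note: 0% = full activity with enzyme and -100% = basal without enzyme; dose as in the result columns while the protocol names 77 µM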
Target sequence (P06280 whole entry, looked up): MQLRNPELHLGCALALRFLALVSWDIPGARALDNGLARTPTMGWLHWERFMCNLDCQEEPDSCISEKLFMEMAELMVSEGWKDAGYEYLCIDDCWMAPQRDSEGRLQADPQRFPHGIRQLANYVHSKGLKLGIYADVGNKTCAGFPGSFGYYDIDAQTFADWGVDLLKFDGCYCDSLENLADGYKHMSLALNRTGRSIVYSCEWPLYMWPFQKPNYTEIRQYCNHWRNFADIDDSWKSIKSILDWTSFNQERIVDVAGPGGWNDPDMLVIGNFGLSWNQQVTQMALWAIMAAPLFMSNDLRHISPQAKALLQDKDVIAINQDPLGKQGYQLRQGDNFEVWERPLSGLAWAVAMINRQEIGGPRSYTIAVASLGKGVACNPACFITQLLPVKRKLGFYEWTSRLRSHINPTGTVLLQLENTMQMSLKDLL
miR-21 reporter = qHTS Assay for Modulators of miRNAs and/orActivators of miR-21; 340,000 tested, under 10 active; Potency, µM (top dose mostly 38.3 µM), for the others: at the top dose reporter change, positive = more light; HeLa miR-21 FLuc reporter, luciferase, 48 h; active = well fitted rising curve with a large enough effect; inconclusive = small, poorly fitted or top-dose-only effect; inactive = no such curve, though single readings can be large or run the other way;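 note: % of control where 0% means no effect; miR-21 action dims this reporter so a rising signal means less miR-21 action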
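Compounds were titrated across several concentrations (up to approximately 40 uM) and incubated 48 hours with HeLa miR-21-FLuc reporter cells (miR-21 target sequence downstream of FLuc, endogenous miR-21). Readout was firefly luciferase luminescence after lytic detection reagent.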
* marks the source's active call; other numbers are inactive results; ? = inconclusive; nt = not tested or not shown; & = joins results of further samples.

Preview, three compounds:
| Structure | Rango complex inh | Rango release inh | GLA inh pH 4.5 | miR-21 reporter |
| --- | --- | --- | --- | --- |
| O=C(O)CC1NC(=O)N(c2ccccc2)C1=O (centres undefined) | nt | nt | -2 | -1% |
| COc1cccc(OCC(=O)NNC(=O)c2ccc(-c3ccccc3)cc2)c1 | -2.3% | 5% | 14 | 1% |
| COc1ccc(-c2nnc(-c3ccccc3O)o2)cc1 | 4.1% | 8% | nt | -60% |

The listing, previewed entries included:
| Structure | Rango complex inh | Rango release inh | GLA inh pH 4.5 | miR-21 reporter |
| --- | --- | --- | --- | --- |
| O=C(O)CC1NC(=O)N(c2ccccc2)C1=O (centres undefined) | nt | nt | -2 | -1% |
| COc1cccc(OCC(=O)NNC(=O)c2ccc(-c3ccccc3)cc2)c1 | -2.3% | 5% | 14 | 1% |
| COc1ccc(-c2nnc(-c3ccccc3O)o2)cc1 | 4.1% | 8% | nt | -60% |
| Cn1c(=O)oc2cc(S(=O)(=O)N3CCCC(C(=O)Nc4ccc5c(c4)OCCO5)C3)ccc21 (centres undefined) | -2.7% | 11% | 1 | -5% |
| C=Cc1ccc(CN2CCCN(Cc3ccc(Cl)cc3)S2(=O)=O)cc1 | -0.5% | 10% | nt | -3% |
| CC(OC(=O)c1ccco1)C(=O)Nc1ncc(Cl)cc1Cl (centres undefined) | 1.9% | 4% | nt | nt |
| COc1cc2c(cc1OC)[C@@H](Cc1ccc(OCCC#N)cc1)N(C)CC2 | -2.0% | -5% | nt | -5% |
| CCC(C)NC(=O)CSc1nc2c(sc3ccccc32)c(=O)n1CCCN1CCOCC1 (centres undefined) | -4.3% | 1% | -3 | 0% |
| CC(=O)N(/N=C/c1cccc(C)c1)c1nc(-c2ccc(Br)cc2)cs1 | -1.1% | -1% | 8 | 0% |
| COc1ccc2c(C(=O)CN3CCN(c4ccccc4)CC3)c[nH]c2c1 | ? | -11% | 3 | 0% |
| S=c1[nH]nc(C2CCCCC2)n1/N=C/c1ccncc1 | -0.1% | -7% | 3 | 26% |
| O=C(NNC(=S)NC(=O)c1ccccc1[N+](=O)[O-])c1ccccc1Cl | 5.2% | 1% | 5 | -13% |
| Cc1ccc(SC(C)C(=O)Nc2ccncc2)cc1 (centres undefined) | 2.3% | 9% | 1 | 6% |
| CCOc1ccc(S(=O)(=O)N2CCOCC2)cc1NC(=O)CCOc1ccc(C(C)(C)C)cc1 | 7.1% | 17% | nt | nt |
| Cc1cccc(C(=O)OCC(=O)NC2CC2)c1O | -1.2% | -2% | nt | nt |
| C=CCn1c(CCC(O)COCCC)n[nH]c1=S (centres undefined) | -0.1% | -13% | 3 | 0% |
| OC(CNC1CCCCC1)CN1CCN(CC(O)CNC2CCCCC2)CC1 (centres undefined) | nt | nt | 2 | -10% |
| O=C(N/N=C/C=C/c1ccco1)C(O)c1ccccc1 (centres undefined) | ? | -6% | nt | nt |
| Cc1noc(/C=C/N(C)C)c1S(=O)(=O)N1CCC(C(=O)O)CC1 | 4.1% | -11% | 4 | -6% |
| CCCN(C(=O)c1cccc(S(=O)(=O)N2CCN(Cc3ccccc3)CC2)c1)C1CCS(=O)(=O)C1 (centres undefined) | -1.6% | -7% | nt | nt |
| COc1ccccc1NC(=O)COC(=O)/C=C/c1cccs1 | -1.2% | -1% | nt | nt |
| CC(C)c1ccc(NC(=S)NN2CCN(C)CC2)cc1 | 6.2% | 0% | -1 | -12% |
| COCCn1c(C)cc(C(=O)COC(=O)c2ccc[nH]c2=O)c1C | ? | 2% | 6 | 3% |
| COc1cccc(C(=O)Cn2c(=O)n(CCC(=O)NCC3CCCO3)c(=O)c3cc(OC)c(OC)cc32)c1 (centres undefined) | 5.1% | -6% | 7 | 3% |
| O=C(NCc1ccc2c(c1)OCO2)c1ccc(CN2CCOCC2)cc1 | 0.8% | -8% | 8 | -18% |
| NC(=S)Nc1ccc(F)cc1F | -1.4% | -5% | 2 | 0% |
| O=C(COc1cnc2ccccc2n1)NCCC1=CCCCC1 | 5.3% | -20% | -15 | -17% |
| Cc1cc(C)c2[nH]c(=O)c(C(c3nnnn3C(C)(C)C)N3CCN(C(=O)c4ccco4)CC3)cc2c1 (centres undefined) | -2.3% | -10% | -2 | -2% |
| CCOC(=O)NNc1ccc2nonc2c1[N+](=O)[O-] | 1.3% | -8% | -15 | 11% |
| CC1CCCCN1C(=O)CCS(=O)(=O)c1cc2c(cc1Cl)NC(=O)CO2 (centres undefined) | -4.6% | -7% | nt | 0%&-49% |
| COc1ccc(CC(=O)NCC(c2ccc(OC)cc2)N(C)C)cc1 (centres undefined) | -2.6% | 1% | 5 | 1% |
| CCOC(=O)c1cnn2c(C(F)(F)F)cc(-c3ccco3)nc12 | ? | ? | 6 | -2% |
| O=C(NC(Cc1ccccc1)C(=O)N1CCN(c2ccccc2O)CC1)c1ccccc1 (centres undefined) | 3.8% | 14% | nt | nt |
| Cc1cc(-c2ccc(C(=O)O)s2)cnc1N | 3.6% | 24% | ? | -5% |
| Cc1c(CN(C)CCc2ccccc2)c(=O)n(-c2ccccc2)n1C | -1.5% | 3% | -1 | -6% |
| O=C(c1ccc(CS(=O)(=O)c2ccccc2)o1)N1CCN(c2ncccn2)CC1 | 5.5% | 15% | 1 | -2% |
| CCS(=O)(=O)c1ccc2oc(Nc3ccc(C(C)C)cc3)nc2c1 | -0.7% | 4% | -4 | -22% |
| C=CCc1ccc(OCCOCCNCCOC)c(OC)c1 | 1.2% | 29% | 0 | -2% |
| CC1CCN(S(=O)(=O)c2ccc3c(c2)N(CC(=O)N(C)Cc2ccco2)C(=O)CO3)CC1 | 1.1% | -10% | nt | -1% |
| Cn1cc(C(=O)N2CCCCCC2)c(=O)c2cc(S(=O)(=O)N3CCCCC3)ccc21 | 0.2% | 2% | nt | 0% |
| COc1ccc(OCC2CCCN(Cc3nc(CC4CC4)no3)C2)cc1 (centres undefined) | -1.7% | -1% | 0 | -31% |
| Brc1ccc(Cn2c(-c3cncs3)nc3ccccc32)cc1 | -4.8% | -12% | -4 | -50% |
| CC1CC(C)CN(C(=O)c2cn(C)c3ccc(S(=O)(=O)N(C)C)cc3c2=O)C1 (centres undefined) | 0.9% | 17% | 0 | 0% |
| Cc1cc2c(c(=O)o1)C(c1ccc([N+](=O)[O-])o1)C(C#N)=C(N)O2 (centres undefined) | ? | -24% | -3 | -2% |
| CC(C)(C)C(=O)NC1(C(F)(F)F)NC(=O)N(c2ccc(F)cc2)C1=O (centres undefined) | 0.6% | 4% | 3 | 0%&-1% |
| CSc1nnc(-c2ccc(C(F)(F)F)cn2)o1 | -1.2% | 3% | -4 | -16% |
| COc1ccc2cc(C(=O)NCc3ccco3)c(=Nc3ccc(C(=O)O)cc3)oc2c1 | ? | -9% | -1 | 1% |
| COc1ccc(C2/C(=C(/O)c3ccc4c(c3)CC(C)O4)C(=O)C(=O)N2CCN2CCOCC2)cc1 (centres undefined) | -4.4% | -5% | -7 | -3% |
| COc1ccc(N(CC(=O)Nc2ccc(OC)c(OC)c2)S(=O)(=O)c2ccccc2)cc1Cl | -7.5% | 13% | nt | -8% |
| CSc1ncccc1C(=O)OCc1c(F)cccc1Cl | 5.0% | 3% | nt | -15% |
| COC(=O)c1ccc(C2/C(=C(/O)c3ccc(OC(C)C)cc3)C(=O)C(=O)N2c2cc(C)on2)cc1 (centres undefined) | -1.9% | -19% | -20 | -9% |
| O=C(NCc1ccccn1)c1ccc(S(=O)(=O)Nc2ccccc2F)cc1 | 0.4% | 0% | nt | -5% |
| CC(C)C(NC(=O)C1CC(=O)N(Cc2ccccc2)C1)c1nc2ccccc2[nH]1 (centres undefined) | 0.2% | -2% | nt | nt |
| Cc1ccc(S(=O)(=O)N2CCN(C(=O)C3CCN(c4ncnc5sc(C)c(C)c45)CC3)CC2)c(C)c1 | 3.0% | 11% | nt | nt |
| COc1ccc(-c2csc3ncnc(Sc4nnnn4C)c23)cc1 | -1.1% | -2% | nt | nt |
| CN(C)c1ccc(-c2nc3cc(N)ccc3o2)cc1 | ? | ? | nt | 12% |
| CN(C)/C(Cn1cncn1)=C1/N=C(c2c(F)cccc2F)OC1=O | 0.1% | 18% | -15 | 0% |
| Cc1[nH]n(-c2ccccc2)c(=O)c1/C=N/NC(=O)c1ccccc1F | 4.2% | 1% | nt | -20% |
| COc1cc(C(=O)OCC(=O)N2CCCC2=O)cc(OC)c1C | 1.7% | 11% | nt | nt |
| CC(=O)Nc1ccc(S(=O)(=O)Nc2ccc(-n3cnnn3)cc2)cc1 | -3.4% | -3% | nt | nt |

More entries.
| Structure | Rango complex inh | Rango release inh | GLA inh pH 4.5 | miR-21 reporter |
| --- | --- | --- | --- | --- |
| C=CCn1c(=O)c2c(nc3n2CC(C)CN3c2cccc(OC)c2)n(C)c1=O (centres undefined) | 0.2% | 35% | -10 | 0% |
| Cc1ccc(S(=O)(=O)N2CCSC2C(=O)O)cc1 (centres undefined) | -5.3% | -17% | -12 | -1% |
| CCOc1ccc(NC(=O)COC(=O)c2cc(S(=O)(=O)N3CCCC3)ccc2C)cc1 | -1.0% | -2% | nt | nt |
| CCC(C)Nc1nc(N)c([N+](=O)[O-])c(NC2CCCCC2)n1 (centres undefined) | 0.7% | -6% | nt | -12% |
| Cc1oc(-c2ccc(Cl)cc2)nc1CN1CCC(C(=O)NCc2cccs2)CC1 | 4.6% | -8% | -1 | -1% |
| Cc1ccc(C(=O)Nc2ccc(Cl)cc2C)c(Cl)c1 | 5.0% | 1% | 0 | -50% |
| O=C(COC(=O)c1cnccn1)Nc1c(Cl)cc(Cl)cc1Cl | 3.4% | 7% | nt | nt |
| Cc1nn(-c2ccc(N3CCOCC3)nn2)c(C)c1CCC(=O)Nc1ccc(F)cc1 | 1.3% | -11% | nt | -18% |
| Cc1ccc(C2(c3noc(CN(C)CC4CCCCO4)n3)CCCC2)cc1 (centres undefined) | 0.4% | 10% | 1 | -1% |
| O=C(Cn1ccc(C(F)(F)F)n1)NNC(=O)c1ccco1 | 0.9% | ? | nt | nt |
| O=C(CS(=O)(=O)Cc1ccccc1)NCc1ccc2c(c1)OCO2 | -0.4% | 0% | nt | 1% |
| O=C(Nc1ccccc1)O/N=C/c1ccc(F)cc1 | -0.1% | 6% | nt | -48% |
| O=C(O)c1ccccc1C(=O)N1CCN(c2cccc(Cl)c2)CC1 | 2.4% | 1% | -4 | -3% |
| Cc1ccc(N(CC(=O)N/N=C/c2ccco2)S(=O)(=O)c2ccccc2)cc1 | -2.4% | -13% | -6 | -3% |
| CN1C(=O)N(c2ccc(Cl)cc2)C(C)(O)CC1(C)C (centres undefined) | -2.2% | 9% | nt | -5% |
| O=S(=O)(Nc1ccc(-c2csc(-c3ccccc3)n2)cc1)c1ccccc1 | 1.8% | 9% | -9 | -24% |
| COc1ccc(-c2ccc(-c3noc(C4CCCCC4)n3)c(OC)n2)cc1 | ? | ? | -1 | -12% |
| Cc1ccccc1OCCNC(=S)Nc1ccccc1 | -2.9% | 8% | -3 | -11% |
| O=C(Nc1ccc2c(c1)OCO2)C1CCCN1C(=O)Nc1cccc(F)c1 (centres undefined) | 1.1% | 21% | -9 | -14% |
| O=S(=O)(CCc1ccncc1)Cc1ccc2c3c(cccc13)CC2 | 3.6% | 35% | -9 | -3% |
| COc1ccc(C2C(C#N)=C(N)Oc3n[nH]c(C)c32)cc1Cn1cc([N+](=O)[O-])cn1 (centres undefined) | -2.1% | 12% | -6 | -6% |
| CC(=O)Oc1cccc(C(=O)Nc2ccccc2NC(=O)c2cccc(OC(C)=O)c2)c1 | 4.5% | 18% | nt | -1% |
| COCCCNC(=O)c1ccc2nc3ccccc3c(=O)n2c1 | ? | -29% | 4 | 0% |
| CCCSC1=NN2CCCC(=O)N=C2S1 | -2.7% | 19% | -21 | -34% |

Screening results from PubChem BioAssay.

Only part of the results is shown, so the mix of outcomes need not match the whole.
